miR-21 FLuc – raises the signal of a miR-21 reporter. HeLa miR-21 FLuc reporter, luciferase, 48 h. Potency, µM (series often up to 38.3 µM), for inactives: top-dose reporter change, positive = more light. 340,000 tested, under 10 active; active = well fitted rising curve with a large enough effect; inconclusive = small, poorly fitted or top-dose-only effect; inactive = no such curve, though single readings can be large or run the other way;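 note: % of control where 0% means no effect; miR-21 action dims this reporter so a rising signal means less miR-21 action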
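Compounds were titrated across several concentrations (up to approximately 40 uM) and incubated 48 hours with HeLa miR-21-FLuc reporter cells (miR-21 target sequence downstream of FLuc, endogenous miR-21). Readout was firefly luciferase luminescence after lytic detection reagent.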
Rango-impB inh – Rango-importin beta binding inhibition. Q14974. 340,000 compounds, 0.031% hits. Potency, µM (doses to about 92.2 µM), for the others: at the highest dose inhibition of complex formation. Rango CFP/YFP FRET sensor + importin beta, 45 min; active = rising FRET ratio curve, often small or poorly fitted; inconclusive = mostly compound fluorescence or quenching in the first reads; inactive = flat curves in all reads;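 note: potency is the fitted concentration of half-maximal effect; 0% = DMSO wells and 100% = buffer wells lacking importin beta; nearly all actives have a fitted effect of over 15% in size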
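Inhibition scored from the CFP 486 nm/YFP 530 nm FRET ratio 45 min after adding 0.125 microM importin beta to 50 nM Rango biosensor preincubated 5 min with compound (room temperature, PBS with DTT, Tween-20, BSA). No-importin wells as positive control.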
GLA inh pH 4.5 – alpha-galactosidase A (human) inhibition, pH 4.5; P06280; purified enzyme, 4-MU-alpha-Gal fluorescence, pH 4.5; activity change, negative = inhibition, % at 105 µM; 230,000 tested, under 10 active; AID 1467; inconclusive = small, poorly fitted or top-dose-only inhibition, or a rising curve; inactive = flat fitted curve, though single readings scatter; no compound was filed as active;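 note: 0% = full activity with enzyme and -100% = basal without enzyme; dose as in the result columns while the protocol names 77 µM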
Target sequence (P06280 whole entry, looked up): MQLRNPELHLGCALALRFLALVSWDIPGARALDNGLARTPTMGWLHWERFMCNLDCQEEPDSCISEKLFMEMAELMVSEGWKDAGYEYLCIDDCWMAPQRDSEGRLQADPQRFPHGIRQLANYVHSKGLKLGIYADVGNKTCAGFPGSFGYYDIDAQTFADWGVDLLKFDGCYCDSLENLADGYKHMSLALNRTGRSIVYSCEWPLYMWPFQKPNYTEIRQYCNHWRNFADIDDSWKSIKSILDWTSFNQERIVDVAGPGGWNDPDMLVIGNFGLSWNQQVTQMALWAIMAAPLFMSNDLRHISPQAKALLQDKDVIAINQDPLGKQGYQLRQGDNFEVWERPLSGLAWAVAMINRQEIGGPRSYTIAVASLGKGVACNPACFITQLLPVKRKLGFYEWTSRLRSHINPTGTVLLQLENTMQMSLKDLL
Rango dissoc inh – inhibition of RanGTP-driven Rango-importin beta dissociation; O95149+P62826; Biochemical FRET Rango-importin beta, RanGTP-induced dissociation; Potency, µM (series often up to 46.1 µM), without a hit: top-dose activity change, negative = inhibition; 340,000 compounds, 0.071% hits; active means falling FRET ratio curve, often poorly fitted, with flat reads before Ran was added; inconclusive means other falling curves, or compound fluorescence or quenching; inactive means flat or rising ratio curve;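 note: potency is the fitted concentration of half-maximal effect; % of control where 0% means no effect; nearly all actives have a fitted effect of over 45% in size; -100% = wells without RanGTP and RCC1; the record marks most hits as doubtful in a second field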
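Quantitative HTS using a FRET biosensor: 0.1 uM Rango, 0.25 uM importin beta, 0.6 uM Ran, 2 mM GTP, 0.2 uM RCC1 final, PBS with DTT, Tween-20 and BSA. Post-read taken 45 min after Ran addition.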
* marks the source's active call; other numbers are inactive results; & = joins results of further samples; [ ] = another dose, or the depositor's remark. Only part of the results is shown, so the mix of outcomes need not match the whole.

O=C(N/N=C/c1ccc([N+](=O)[O-])cc1)c1cccs1 was read as miR-21 FLuc -45%, Rango-impB inh 0.1%, GLA inh pH 4.5 -23 and Rango dissoc inh -7%.
Screening O=C(CSCc1ccc([N+](=O)[O-])cc1)Nc1cccc(C(=O)Nc2ccccc2C(=O)O)c1 returned miR-21 FLuc -5%, Rango-impB inh -5.0%, GLA inh pH 4.5 -1 and Rango dissoc inh 29%.
Cc1cc(C)n(CCCNC(=O)c2cc(COc3ccc(C)c(C)c3)on2)n1 was read as miR-21 FLuc -6%, Rango-impB inh -2.0% and Rango dissoc inh 3%.
For Cc1ccc(-c2csc(NCCn3c(C(F)(F)F)nc4ccccc43)n2)cc1 the results were miR-21 FLuc 2%, Rango-impB inh -3.0% and Rango dissoc inh 14%.
`Cc1ccc(Cn2nnc3c(=O)[nH]c(C4CCCN(S(=O)(=O)c5ccccc5F)C4)nc32)cc1` (centres undefined) gave miR-21 FLuc -8%, Rango-impB inh 1.4% and Rango dissoc inh -2%.
Screening Cc1ccc(C(=O)C(NC(=O)c2ccco2)Nc2sc3c(c2C(N)=O)CCCC3)cc1 (centres undefined) returned miR-21 FLuc -28% and GLA inh pH 4.5 -6.
For O=C(NC1CCCCCC1)c1ccc[nH]c1=S the results were miR-21 FLuc -12%, Rango-impB inh 1.2%, GLA inh pH 4.5 -1 and Rango dissoc inh -9%.
CC(=O)Nc1ccc(S(=O)(=O)NC2(C(F)(F)F)C(=O)Nc3c2c(=O)[nH]c(=O)n3Cc2cccnc2)cc1 (centres undefined) was read as miR-21 FLuc 1%, Rango-impB inh -5.3%, GLA inh pH 4.5 12 and Rango dissoc inh -3%.
`CC(=O)Nc1nc2ccccc2n1CCOc1ccccc1Cl` gave miR-21 FLuc 21%, Rango-impB inh -0.4%, GLA inh pH 4.5 0 and Rango dissoc inh 2%.
`CC1CCCN(CC(=O)Nc2ccc(S(=O)(=O)N3CCCC3)cc2)C1` (centres undefined) gave miR-21 FLuc -1%, Rango-impB inh 3.7% and Rango dissoc inh 2%.
For Cc1ccc(S(=O)(=O)N(C)c2c(C)ccc(S(=O)(=O)Nc3ccncc3)c2C)cc1 the results were miR-21 FLuc -18%, Rango-impB inh 0.8%, GLA inh pH 4.5 -5 and Rango dissoc inh 0%.
For Cc1ccccc1NC(=S)NC(=O)COc1ccccc1C the results were miR-21 FLuc 0%, Rango-impB inh -4.8% and Rango dissoc inh -5%.
`Fc1cccc(CSc2ncnc3c2oc2ccccc23)c1` gave miR-21 FLuc -3%, Rango-impB inh -2.3%, GLA inh pH 4.5 10 and Rango dissoc inh 4%.
Screening O=C(CCl)N1CCCC1c1ccc2c(c1)OCCO2 (centres undefined) returned miR-21 FLuc inconclusive, Rango-impB inh -1.8% and Rango dissoc inh 2%.
Screening CC(=O)N1CCN(c2ccc(NC(=O)c3ccco3)cc2)CC1 returned miR-21 FLuc -53%, Rango-impB inh -0.5% and Rango dissoc inh -5%.
For CCOc1ccc(C(=O)N[C@H](C(=O)NNC(=O)c2cccs2)C(C)C)cc1 the results were Rango-impB inh -4.2% and Rango dissoc inh -12%.
Screening CCOC(=O)C=Nc1c(N)n(C)c(=O)n(C)c1=O returned miR-21 FLuc -1%, Rango-impB inh inconclusive, GLA inh pH 4.5 7 and Rango dissoc inh inconclusive.
Screening CCOC(=O)C(CCCCCOc1ccc([N+](=O)[O-])cc1)C(=O)OCC returned miR-21 FLuc 0%, Rango-impB inh inconclusive, GLA inh pH 4.5 -4 and Rango dissoc inh -17%.
O=C1CCCc2c1ccc1ccccc21 was read as Rango-impB inh 2.4% and Rango dissoc inh 7%.
For O=C(CN1CCOCC1)Nc1ncc(Cc2cccc(Cl)c2)s1 the results were miR-21 FLuc -9%, Rango-impB inh 0.4%, GLA inh pH 4.5 1 and Rango dissoc inh 17%.
N[C@@H](CO)c1nnc([C@H](CC(=O)O)NC(=O)C2CCNCC2)o1 was read as miR-21 FLuc 2%, Rango-impB inh -1.2%, GLA inh pH 4.5 8 and Rango dissoc inh 0%.
Screening NC(=O)N/N=C1\c2ccccc2-c2c(C(N)=O)cccc21 returned miR-21 FLuc 8%, Rango-impB inh -5.6% and Rango dissoc inh 2%.
For O=C(NCCc1nccs1)C1CCC(=O)N(CCc2ccc(Cl)cc2)C1 (centres undefined) the results were miR-21 FLuc 0%, Rango-impB inh -0.4% and Rango dissoc inh 8%.
CCOC(=O)c1c(S(=O)(=O)NCC(=O)NCc2ccc(C)cc2)c(C)n(C)c1C was read as miR-21 FLuc -3%&-11%, Rango-impB inh -4.8% and Rango dissoc inh -19%.
`O=C(CCN1C(=O)CSC1=O)Nc1ccccc1` gave miR-21 FLuc -1%, Rango-impB inh 3.7%, GLA inh pH 4.5 7 and Rango dissoc inh 36%.
For COc1ccc(NC(=O)COC(=O)CN2C(=O)C3CCCCC3C2=O)cc1OC (centres undefined) the results were Rango-impB inh 0.4% and Rango dissoc inh 20%.
For Cn1c(=O)c2c(ncn2CC(O)CO)n(C)c1=O (centres undefined) the results were miR-21 FLuc -17%, Rango-impB inh 1.8%, GLA inh pH 4.5 -4&3 and Rango dissoc inh inconclusive.
`CCOc1nnc(C)c2c(C)n(-c3cccc(OC)c3)nc12` gave miR-21 FLuc -2%, Rango-impB inh -0.5%, GLA inh pH 4.5 3 and Rango dissoc inh 0%.
For CC1=CCC2C(=O)N(c3ccc(C)c(Br)c3)C(=O)C2C1 (centres undefined) the results were miR-21 FLuc -3%, Rango-impB inh 2.6%, GLA inh pH 4.5 7 and Rango dissoc inh 4%.
For Cn1nc(-c2ccccc2)cc1NC(=O)Nc1ccc(F)cc1 the results were miR-21 FLuc -7%, Rango-impB inh -1.4%, GLA inh pH 4.5 -1 and Rango dissoc inh -3%.
COc1ccc(NC(=O)C2CCN(C(=O)C3CC(=O)N(c4ccc(C)cc4)C3)CC2)c(OC)c1 (centres undefined) was read as miR-21 FLuc -3%, Rango-impB inh 1.2% and Rango dissoc inh -7%.
O=C(c1ccc(Br)s1)N1CCN(c2ncccn2)CC1 was read as miR-21 FLuc -10%, Rango-impB inh -0.6%, GLA inh pH 4.5 8 and Rango dissoc inh -4%.
Screening COc1ccccc1/C=N/NC(=O)c1ccc(NC(=O)c2ccccc2Br)cc1 returned miR-21 FLuc -10%, Rango-impB inh 1.8%, GLA inh pH 4.5 -4 and Rango dissoc inh -5%.
For CCOCCCNC(=O)c1ccc2nc(-c3ccc(OC)c(OC)c3)c(-c3ccc(OC)c(OC)c3)nc2c1 the results were miR-21 FLuc -4%, Rango-impB inh inconclusive and Rango dissoc inh inconclusive.
O=C(O)CSCC(=O)NC1CCCc2ccccc21 (centres undefined) was read as miR-21 FLuc 6%, Rango-impB inh -0.3%, GLA inh pH 4.5 -5 and Rango dissoc inh -14%.
For C=CCNC(=S)NNC(=O)c1ccc(OCC(C)C)cc1 the results were miR-21 FLuc -1%, Rango-impB inh -4.4%, GLA inh pH 4.5 1 and Rango dissoc inh -8%.

The list goes on, starting with the last four of the part before.
Screening COc1ccccc1/C=N/NC(=O)c1ccc(NC(=O)c2ccccc2Br)cc1 returned miR-21 FLuc -10%, Rango-impB inh 1.8%, GLA inh pH 4.5 -4 and Rango dissoc inh -5%.
For CCOCCCNC(=O)c1ccc2nc(-c3ccc(OC)c(OC)c3)c(-c3ccc(OC)c(OC)c3)nc2c1 the results were miR-21 FLuc -4%, Rango-impB inh inconclusive and Rango dissoc inh inconclusive.
O=C(O)CSCC(=O)NC1CCCc2ccccc21 (centres undefined) was read as miR-21 FLuc 6%, Rango-impB inh -0.3%, GLA inh pH 4.5 -5 and Rango dissoc inh -14%.
For C=CCNC(=S)NNC(=O)c1ccc(OCC(C)C)cc1 the results were miR-21 FLuc -1%, Rango-impB inh -4.4%, GLA inh pH 4.5 1 and Rango dissoc inh -8%.
For Cc1cc(-c2nnc3n2N=C(C(C)(C)C)CS3)n[nH]1 the results were miR-21 FLuc -7%, Rango-impB inh -1.2%, GLA inh pH 4.5 3 and Rango dissoc inh -9%.
CN(C(=O)c1ccc(S(=O)(=O)N2CCOCC2)cc1)C1CCS(=O)(=O)C1 (centres undefined) was read as Rango-impB inh 1.8% and Rango dissoc inh 3%.
Screening Cc1ccnc2nc(C(=O)OCC(=O)N(CC(C)C)C3CCS(=O)(=O)C3)nn12 (centres undefined) returned Rango-impB inh -6.0% and Rango dissoc inh -39%.
For COc1ccccc1NC(=O)CSc1nc(=O)n(Cc2ccncc2)c2c1CCCC2 the results were Rango-impB inh 0.0% and Rango dissoc inh -4%.
O=C(c1ccc(Cl)c(S(=O)(=O)N2CCCC2)c1)N1CCN(c2ncccn2)CC1 was read as miR-21 FLuc 1%, Rango-impB inh 0.4%, GLA inh pH 4.5 7 and Rango dissoc inh -2%.
Screening O=C1C(=O)N(CCN2CCOCC2)C(c2cccnc2)/C1=C(/O)c1ccc(Cl)cc1 (centres undefined) returned miR-21 FLuc 1%, Rango-impB inh -1.2%, GLA inh pH 4.5 -20 and Rango dissoc inh -1%.
For CCc1ccccc1NC(=O)C1CCCN(c2nn3c(=O)cc(C)nc3s2)C1 (centres undefined) the results were miR-21 FLuc -4%, Rango-impB inh -0.2% and Rango dissoc inh 0%.
For O=C(CCCn1cnc([N+](=O)[O-])n1)Nc1cc(Cl)ccc1O the results were miR-21 FLuc 3%, Rango-impB inh 2.9%, GLA inh pH 4.5 4[21.1 µM] and Rango dissoc inh 36%.
COc1ccc(NC(=O)CN2C(=O)CSC(C)C2=O)c(OC)c1 (centres undefined) was read as miR-21 FLuc 0%, Rango-impB inh 2.3%, GLA inh pH 4.5 4 and Rango dissoc inh 36%.
`CCCC(C)NC(=O)c1sc2nc3n(c(=O)c2c1C)CCC3` (centres undefined) gave miR-21 FLuc -29%, Rango-impB inh -0.6%, GLA inh pH 4.5 3 and Rango dissoc inh -10%.
For C=CCNC(=S)NNC(=O)c1ccc([N+](=O)[O-])cc1 the results were miR-21 FLuc 3%, Rango-impB inh -3.7%, GLA inh pH 4.5 -4 and Rango dissoc inh -2%.
COc1cc(NS(=O)(=O)c2ccccc2)ccc1-n1nc(C)cc1C was read as miR-21 FLuc -1%, Rango-impB inh 0.8%, GLA inh pH 4.5 12 and Rango dissoc inh -2%.
`CCC(=O)N1c2ccc(S(=O)(=O)NCc3ccco3)cc2CC1C` (centres undefined) gave miR-21 FLuc -1%, Rango-impB inh 5.2% and Rango dissoc inh -12%.
For COc1cccc(Cn2c(-c3cccs3)noc2=O)c1 the results were miR-21 FLuc -16%, Rango-impB inh 2.4%, GLA inh pH 4.5 -1 and Rango dissoc inh 2%.
O=C1C(CO)C(CO)C(CO)C1CO (centres undefined) was read as Rango-impB inh inconclusive and Rango dissoc inh -13%.
Cc1ccc2cc(C(c3nnnn3Cc3ccccc3)N3CCN(c4ccccc4)CC3)c(=O)[nH]c2c1 (centres undefined) was read as miR-21 FLuc 9%, Rango-impB inh inconclusive, GLA inh pH 4.5 -13 and Rango dissoc inh -14%.
CC1Cc2ccccc2N1Cc1ccc([N+](=O)[O-])cc1 (centres undefined) was read as miR-21 FLuc -1%, Rango-impB inh -0.6% and Rango dissoc inh -11%.
`CC1(C)SC2[C@H](NC(=O)C(NC(=O)N3CCNC3=O)c3ccccc3)C(=O)N2C1C(=O)O` (some centres undefined) gave miR-21 FLuc 1% and GLA inh pH 4.5 2.
Screening CCCNC(=O)N1CCC(C(=O)c2ccc(Cl)cc2)CC1 returned miR-21 FLuc -1%, Rango-impB inh 7.1%, GLA inh pH 4.5 0 and Rango dissoc inh -17%.
`N#Cc1cccc(NC(=O)Cn2c3[n+](c4ccc(C(F)(F)F)cc42)CCCCC3)c1` gave miR-21 FLuc 0%, Rango-impB inh 3.2%, GLA inh pH 4.5 2 and Rango dissoc inh 5%.
For C[C@H]1CNC(=O)C(=O)N1C[C@H](Cc1ccc(O)cc1)NC(=O)CC12CC3CC(CC(C3)C1)C2 the results were miR-21 FLuc 0%, Rango-impB inh -7.3% and Rango dissoc inh -10%.
Screening Cc1sc2nc(SCC(=O)N(C)C)[nH]c(=O)c2c1C returned miR-21 FLuc -11%, Rango-impB inh inconclusive, GLA inh pH 4.5 -5 and Rango dissoc inh -5%.
